SARS PLP yeast = inhibitors of SARS-CoV papain-like protease in yeast; S. cerevisiae expressing SARS-CoV PLpro, growth rescue; control for the full effect not named in the record; Potency, µM (highest dose often 32.9 µM), inactives show at the highest dose activity, positive = growth rescue; 0.19% of 330,000 active; AID 485353; also: 0% is about no effect; nearly all actives have a fitted effect of over 55% in size; growth read by luminescence after 48 h
Cruzain Triton = blocks cruzain activity in presence of Triton detergent. P25779. purified cruzain, Z-FR-AMC fluorescence, 0.01% Triton. Potency, µM, for inactives: max response, negative = inhibition, actives largely listed as inhibitors. 0.43% of 200,000 active; active = well fitted curve in the direction sought with a large enough effect; inconclusive = small, poorly fitted or top-dose-only effect, or another doubt; inactive = no such curve, though single readings can be large; an effect the other way counts as inactive or inconclusive;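 also: plate controls were neutral wells for no effect and buffer without enzyme for full effect; nearly all actives have a fitted effect of over 40% in size; top concentration of the series not given in the record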
Target sequence (P25779 123-467 limits assumed): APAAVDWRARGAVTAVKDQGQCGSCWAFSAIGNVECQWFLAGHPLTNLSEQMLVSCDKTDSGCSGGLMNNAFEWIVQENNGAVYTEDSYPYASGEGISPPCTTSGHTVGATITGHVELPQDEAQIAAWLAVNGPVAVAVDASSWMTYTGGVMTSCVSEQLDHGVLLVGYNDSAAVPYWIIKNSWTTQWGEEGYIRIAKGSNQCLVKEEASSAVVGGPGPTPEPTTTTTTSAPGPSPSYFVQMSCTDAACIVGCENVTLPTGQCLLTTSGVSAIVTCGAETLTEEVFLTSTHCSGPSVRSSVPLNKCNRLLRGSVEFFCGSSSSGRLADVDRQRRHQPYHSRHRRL
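Detergent-containing arm of a paired screen for aggregation-based inhibition: 0.01% Triton X-100 present. Cruzain at 1.5 nM cleaved 2 uM Z-FR-AMC at pH 5.5 with 5 mM DTT; AMC fluorescence gain over 60 s measured activity.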
2A StopGo = lowers the luciferase signal of an FMDV 2A StopGo reporter; 1.2% of 410,000 active; human cells with a luciferase reporter of 2A StopGo recoding; control for the full effect not named in the record; Potency, µM (highest dose often 57.9 µM), for inactives: at the top dose signal change, negative = less light; active = well fitted falling curve with a large enough effect; inconclusive = small, poorly fitted or top-dose-only effect; inactive = no such curve, though single readings can be large or run the other way; tested in HEK293T cells; also: % is scaled to controls: 0 for no effect and ±100 for the full control effect; nearly all actives have a fitted effect of over 45% in size; luciferase light after 4 h
Lassa entry inh = blocks Lassa virus binding to or entry into cells; 1.2% of 300,000 active; AID 540256; Lassa virus pseudotype entry inhibition, cell reporter; control for the full effect not named in the record; Potency, µM (series often up to 37.9 µM), for inactives: top-dose activity change, negative = inhibition, actives largely listed as inhibitors; active means well fitted inhibition curve with a large enough effect; inconclusive means small, poorly fitted or top-dose-only effect, or effect the other way; inactive means flat fitted curve, though single readings scatter; tested in HEK293 cells; also: % is scaled to controls: 0 for no effect and ±100 for the full control effect; nearly all actives have a fitted effect of over 50% in size; luciferase read-out
MARV entry inh = Marburg virus entry inhibition | Marburg virus pseudotyped entry inhibition, cell reporter; control for the full effect not named in the record; about a third of the inactives were read at about 46 µM | Potency, µM (top dose mostly 37.8 µM), for the others: at the top dose activity change, negative = inhibition, most hits filed as inhibitors | 1.8% of 300,000 active | AID 540276; active = well fitted inhibition curve with a large enough effect; inconclusive = small, poorly fitted or top-dose-only effect, or effect the other way; inactive = flat fitted curve, though single readings scatter; tested in HEK293 cells; about a fifth of its hits are not listed in these tables; also: % is scaled to controls: 0 for no effect and ±100 for the full control effect; luciferase read-out
RE007 growth inh = less growth of the S. pombe RE007 Vpr strain; Potency, µM (highest dose often 92.2 µM), without a hit: at the highest dose activity change, negative = less growth; S. pombe RE007 Vpr strain, BacTiter-Glo ATP luminescence, 24 h; control for the full effect not named in the record; 0.21% of 360,000 active; active = well fitted falling curve with a large enough effect; inconclusive = small, poorly fitted or top-dose-only effect; inactive = no such curve, though single readings can be large or run the other way;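 also: % is scaled to controls: 0 for no effect and ±100 for the full control effect; nearly all actives have a fitted effect of over 50% in size; the assay follows cell death caused by Vpr and the record does not say whether a fall means rescue or toxicity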
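Fission yeast RE007 carrying one integrated HIV-1 vpr copy, seeded at OD 0.01 in PMG+AL medium with 23 nL pinned compound. Grown 24 h at 30 degrees; viability read by BacTiter-Glo luminescence after 5 min.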
NS1 function inh = influenza NS1 inhibition; S. cerevisiae slowed by influenza A NS1, growth recovery by OD600; Potency, µM (highest dose often 46.1 µM), for inactives: at the highest dose activity, positive = more growth; 0.4% of 270,000 active; AID 2326; also: actives are rising curves; nearly all actives have a fitted effect of over 50% in size
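In this qHTS, NS1 from influenza A is expressed in budding yeast, where it slows growth. Cells are switched from glucose to 2% galactose medium (pH 6.0, -URA), treated with compound, and growth recovery is read at OD600.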
Cruzain noTriton = blocks cruzain activity in detergent-free assay; P25779; purified cruzain, Z-FR-AMC fluorescence, no detergent; Potency, µM, for inactives: max response, negative = inhibition, usual class: inhibitors; 2.3% of 200,000 active; AID 1476; active = well fitted curve in the direction sought with a large enough effect; inconclusive = small, poorly fitted or top-dose-only effect, or another doubt; inactive = no such curve, though single readings can be large; an effect the other way counts as inactive or inconclusive;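 also: plate controls were enzyme without inhibitor for no effect and buffer without enzyme for full effect; nearly all actives have a fitted effect of over 40% in size; top concentration of the series not given in the record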
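Purified cruzain at 1.5 nM, pre-incubated 15 min with compound at room temperature in 100 mM sodium acetate pH 5.5, 5 mM DTT, 0.00005% Triton X-100. Reaction started with 2 uM Z-FR-AMC; AMC fluorescence increase over 60 s gives rate.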
* = called active by the depositor; ? = inconclusive; . = not tested or not shown; [ ] = remark or other dose. Unless noted, calls follow the shape of the dose curve; as a rule, active means well fitted rising curve with a large enough effect; inconclusive means small, poorly fitted or top-dose-only effect; inactive means no such curve, though single readings can be large or run the other way. Potency is read from the fitted curve at half-maximal effect.

Order of values – RE007 growth inh	Cruzain Triton	2A StopGo	Lassa entry inh	Cruzain noTriton	SARS PLP yeast	NS1 function inh	MARV entry inh
> Cc1cc(C)c(S(=O)(=O)N2CCC(C(=O)NCc3ccncc3)CC2)c(C)c1
    0%	.	0%	-4%	.	-5%	-22%	-27%
> COc1cc2c(cc1OC)C1=C(C#N)CN(CC(=O)O)CN1CC2
    6%	0.0%	2%	.	-15%	-6%	?	.
> Cn1c(O)c(N=Nc2ccccc2[N+](=O)[O-])c2ccccc21
    -1%	.	56%[activator]	-2%	.	-3%	7%	5%
> Cc1oc2ccc(Br)cc2c(=O)c1-c1nn[nH]n1
    -2%	.	10%	.	.	-1%	-8%	-1%[46.1 µM]
> COc1ccc(C2C3=C(CC(C)(C)CC3=O)Nc3nc(C)nn32)cc1OC (stereo not given)
    9%	.	-13%	.	.	1%	0%	.
> CCOC(=O)c1c(CC(C)C)csc1NC(=O)COC(=O)C1=NNC(=O)CC1
    -14%	.	-9%	-1%	.	2%	.	3%
> Cc1ccc(-n2c(-c3ccccc3)c[nH]c2=S)cc1
    3%	.	?	?	.	3%	.	-2%[46.1 µM]
> OC(COc1ccc(Cl)cc1)CN1CCN(c2ccccc2)CC1 (stereo not given)
    4%	.	?	.	.	3%	-3%	.
> COc1ccccc1CN1CCCC(CN(CCN(C)C)C(=O)c2ccc(C)cc2)C1 (stereo not given)
    -16%	.	4%	.	.	0%	2%	.
> O=C(COC(=O)C1CCN(S(=O)(=O)c2cccs2)CC1)c1ccccc1
    21%	.	18%	11%	.	3%	2%	?
> O=C(COc1ccc(Br)cc1CO)Nc1ccc(F)cc1
    -19%	-1.7%	-5%	9%	2%	-11%	-2%[9.22 µM]	1%
> Cc1cccn2c(=O)c3cc(S(=O)(=O)c4ccccc4)c(=N)n(CC4CCCO4)c3nc12 (stereo not given)
    -21%	.	3%	5%	.	1%	3%	9%[46.1 µM]
> COc1cc2c(cc1OC)[C@@H]1Cc3ccc(OC)c(OC)c3CN1CC2
    14%	.	-29%	?	.	7%	1%	0%
> COc1cc2c(cc1NC(=O)CSc1nc3cc(Cl)ccc3s1)oc1ccccc12
    -9%	-3.5%	-18%	13%	7.9µM*	-3%	?	?
> Cc1cccc(Oc2ccc(C(=O)NC3CCSC3=O)cn2)c1C (stereo not given)
    -8%	2.7%	-11%	-4%	-12%	0%	1%	-1%
> CC(=O)N1CCc2cc(S(=O)(=O)N3c4ccccc4CC3C)ccc21 (stereo not given)
    1%	0.7%	.	?	?	-2%	0%	?
> CN(C)CCCn1c(SCC(=O)N2CC(=O)Nc3ccccc32)nc2ccccc2c1=O
    -14%	.	-15%	-2%	.	2%	.	.
> COc1ccc(CCNC(=O)C2CCN(c3nn4c(=O)cc(C)nc4s3)CC2)cc1OC
    5%	-8.6%	17%	8%	-10%	0%	6%	11%
> CCOC(=O)c1c(O)c(O)c(C(=O)OCC)n1-c1ccccc1
    -12%	.	-6%	0%	.	2%	1%	-13%
> CS(=O)(=O)c1cccc(C(=O)Nc2ccc3c(c2)OCCCO3)c1
    -1%	.	25%	4%[46.1 µM]	.	0%	5%	?
> CC(C)C(NC(=O)c1ccccc1NC(=O)c1ccccc1)C(=O)NCCCn1ccnc1 (stereo not given)
    -6%	.	5%	2%[46.1 µM]	.	2%	-4%	-9%[46.1 µM]
> CCOCCCNC(=O)C1(O)c2ccccc2NC(=O)N1c1ccc(Cl)c(Cl)c1 (stereo not given)
    1%	.	9%	0%[46.1 µM]	.	0%	4%	?
> COc1ccc(-n2c(C)nc(=O)c(-c3ccccc3)c2C)cc1
    13%	2.2%	12%	0%	-4%	-14%	1%	29%[46.1 µM]
> CSc1nc2ccc(S(=O)(=O)N3CCOCC3)cc2s1
    15%	1.4%	.	-1%	7%	-1%	-10%	12%
> CCN1CCN(Cc2ccc(NC(=O)c3ccc(C)c(NC(=O)c4cccc(-c5cn[nH]c(=O)c5)c4)c3)cc2C(F)(F)F)CC1
    1%	.	12%	.	.	-6%	-8%	.
> O=C(c1ccc2oc(CCc3ccccc3)nc2c1)N1CCC(O)CC1
    1%	.	-5%	.	.	-6%	-7%	.
> COc1cc(CN2CCCCCC2)cc(OC)c1
    -7%	.	-9%	5%[46.1 µM]	.	17%	6%	?
> CCOc1ccc2nc(NC(=O)CS(=O)(=O)c3ccc(Cl)cc3)sc2c1
    .	-9.8%	-14%	?	5µM*	.	.	.
> Nc1c(C(=O)N/N=C/c2ccccc2Cl)oc2nc(-c3ccccc3)cc(-c3ccco3)c12
    10%	.	-19%	-7%	.	-2%	24%	?
> Cc1ccc(-c2noc(-c3ccccc3C(=O)N3CCCC3)n2)cc1
    8%	-3.2%	41%[activator]	-12%	?	-8%	-10%	5%
> COc1ccc(C(=O)Nc2ccc3c(c2)CCCN3C(=O)c2cccs2)c(OC)c1
    3%	-5.6%	?	?	8%	-11%	-48%	.
> Cc1ccc(OCC(=O)N/N=C/c2cccc3cccnc23)cc1
    -14%	.	-6%	-9%[46.1 µM]	.	.	-64%	5%[46.1 µM]
> CC(=O)N[C@@H](Cc1c[nH]c2ccccc12)C(=O)NC1CCCc2ccccc21 (stereo not given in full)
    1%	.	-9%	?	.	19%	8%	5%[46.1 µM]
> Cc1ccc2oc(=O)c3cc(C(=O)N4CCN(c5ccccc5F)CC4)sc3c2c1
    .	-0.1%	-3%	-6%[46.1 µM]	-12%	.	.	-5%[46.1 µM]
> COCCC1CCCCN1C(=O)c1cccc(OC2CCN(S(C)(=O)=O)CC2)c1 (stereo not given)
    -2%	.	-6%	-14%	.	-2%	6%	-15%
> CCC(Sc1nc2ncccc2o1)C(=O)Nc1cccc(C)c1 (stereo not given)
    .	-3.4%	-10%	?	-4%	.	.	.
> COC(=O)c1ccc(/C=N/N2CCN(Cc3ccccc3Cl)CC2)cc1
    1%	.	-22%	9%[46.1 µM]	.	-1%	1%	?
> O=C(COc1ccccc1F)Nc1nnc(SCc2cc(=O)c3ccccc3[nH]2)s1
    .	-2.1%	-29%	17%[46.1 µM]	-17%	.	.	.
> O=C(NN1C(=O)C2C3C=CC(C3)C2C1=O)c1ccncc1 (stereo not given)
    -6%	1.7%	0%	2%	8%	10%	23%	-4%
> COc1ccc(-c2cc(-c3ccc(C)cc3)nc(SCc3nnc(-c4ccccc4)o3)c2C#N)cc1OC
    2%	-0.9%	-8%	2%	10µM*	-2%	14%	-28%
> C[C@H](NC(=O)[C@@H]1CSC2c3ccccc3C(=O)N21)C(=O)NC1CCCCC1 (stereo not given in full)
    -5%	.	-15%	.	.	-1%	19%	.
> CCCn1nnnc1NCc1cc(Br)ccc1OC
    14%	.	12%	3%[46.1 µM]	.	1%	-2%	-3%[46.1 µM]
> N#C/C(=C/c1ccc(Cl)cc1)NC(=O)c1ccccc1
    13%	1.7%	-6%	-20%	?	-3%	-30%	-9%
> COC(=O)c1ccccc1N(C)S(=O)(=O)c1cc2c3c(c1)CCC(=O)N3CCC2
    6%	.	-28%	-4%	.	-1%	.	-1%
> O=C(Nc1ccc(Br)cc1)C1CCCN1S(=O)(=O)c1cccs1 (stereo not given)
    3%	-4.0%	?	-26%	7%	-5%	-32%	?
> COc1cc(/C=C2\SC(=S)N(NS(=O)(=O)c3ccccc3)C2=O)ccc1O
    10%	.	0%	.	.	0%	-4%	.
> CCC(=O)N1CCc2cc(S(=O)(=O)N3CCCCCC3)ccc21
    -3%	.	7%	4%[46.1 µM]	.	4%	-7%	12%[46.1 µM]
> Cc1cccc(-c2nnn(C/C(N)=N/O)n2)c1
    6%	.	8%	.	.	-1%	1%	.
> COC(=O)c1ccccc1NC(=O)CSc1nnc(C(C)NC(=O)c2ccc(Cl)cc2Cl)n1C (stereo not given)
    -3%	3.0%	0%	-4%	?	-2%	-8%	27%
> COc1ccc(NC(=O)CN2CCN(C(=O)C3CCCO3)CC2)c(OC)c1 (stereo not given)
    -5%	.	1%	8%	.	-1%	5%	?
> CCNC(=O)CSc1nc2cc(OC)c(OC)cc2c(=O)n1CCC1=CCCCC1
    .	2.4%	.	.	15%	-4%	2%	.
> CC(C)c1nc(SCC(=O)NC2CCCCC2)c2ccccc2n1
    16%	.	-30%	16%	.	0%	-6%	5%[46.1 µM]
> Cc1occc1C(=O)NNC(=S)NC(=O)COc1ccc(Cl)cc1Cl
    2%	.	1%	23%	.	2%	13%	7%
> CCC(C)(C)NCC(=O)Nc1ccc(OC(F)(F)F)cc1
    17%	6.7%	2%	6%	-9%	2%	14%	-11%[46.1 µM]
> COc1ccc(/C=C/C(=O)Oc2ccc(/C=N\NC(=O)c3ccc(F)cc3)cc2)cc1
    1%	0.0%	-6%	13%	7.9µM*	13%	9%	6%
> CC(=O)Nc1ccc(C2C(=O)c3ccccc3C2=O)cc1
    8%	.	20µM*	-11%	.	8%	?	1%
> Cc1ccc(NC(=O)CCCNC(=O)c2ccc(Cl)cc2)cc1S(=O)(=O)N1CCCCC1
    2%	.	?	-13%	.	-1%	.	-11%
> Cc1ccc(-n2cccn2)c([C@@H]2C[C@H]3CN(C)C(=O)[C@]34CCCN24)c1
    8%	.	0%	-20%	.	0%	1%	?
> CC(NC(=O)COc1ccc(Br)cc1)C1CCCO1 (stereo not given)
    5%	.	-21%	-15%	.	-2%	-8%	-4%
> CCN(CC)S(=O)(=O)c1ccc(NC(=O)COc2nc3ccccc3nc2N2CCOCC2)cc1
    2%	-8.2%	-19%	2%	?	15%	?	-22%
> CCOC(=O)C1CCCN(Cc2nc(N)nc(Nc3ccc(OC)cc3)n2)C1 (stereo not given)
    -24%	4.3%	?	-20%	6%	2%	5%	-16%

High-throughput results as filed in PubChem BioAssay.
